KAT2A inh = GCN5L2 (KAT2A) acetyltransferase inhibition. Potency, µM (top dose mostly 58.9 µM), inactives show top-dose activity change, negative = inhibition, most hits filed as inhibitors. 390,000 compounds, 0.21% hits. GCN5L2 HAT assay, ThioGlo1 CoA-SH fluorescence
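qHTS, 1536-well. 20nM enzyme, pH 7.5 HEPES/EDTA/Tween-20 buffer; 15 min compound preinc., RT. Start: 75uM H3(1-25), 70uM AcCoA, 50uM ThioGlo1. Read Ex340/Em540 at t=0 (autofluorescence flag) and t=20 min.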
FEN1 inh = inhibitors of human flap endonuclease 1; AID 588795; Recombinant FEN1 flap cleavage, fluorescence, 15 min; 390,000 compounds, 0.35% hits; Potency, µM (titrated, usually from 114 µM), without a hit: at the highest dose activity change, negative = inhibition, hits mostly inhibitors; further: nearly all actives have a fitted effect of over 65% in size
Target sequence (P39748 whole entry, looked up): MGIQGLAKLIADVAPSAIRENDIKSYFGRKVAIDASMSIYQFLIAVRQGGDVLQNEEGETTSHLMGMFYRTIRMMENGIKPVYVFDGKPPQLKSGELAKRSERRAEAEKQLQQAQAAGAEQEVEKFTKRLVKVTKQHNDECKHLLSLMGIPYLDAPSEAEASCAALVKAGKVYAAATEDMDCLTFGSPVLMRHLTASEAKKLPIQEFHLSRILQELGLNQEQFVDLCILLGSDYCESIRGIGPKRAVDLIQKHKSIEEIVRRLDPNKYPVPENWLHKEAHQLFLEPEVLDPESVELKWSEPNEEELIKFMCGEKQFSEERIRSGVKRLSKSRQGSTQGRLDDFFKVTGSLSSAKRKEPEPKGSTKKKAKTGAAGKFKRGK
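Recombinant FEN1 (10 nM) was preincubated with pin-transferred compounds for 15 min at room temperature, then flap DNA substrate (50 nM final) was added. Plates were read at 0 and 15 min, and normalized concentration–response data were fitted to a four-parameter Hill equation.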
* = called active by the depositor; ? = inconclusive; . = no result given; [ ] = remark or other dose. The call rests on the fitted dose curve; in most records, active means well fitted curve in the direction sought with a large enough effect; inconclusive means small, poorly fitted or top-dose-only effect, or another doubt; inactive means no such curve, though single readings can be large; an effect the other way counts as inactive or inconclusive. On the % scale 0 is the no-effect control and ±100 the full control effect; potency means the concentration at half of the fitted maximal effect. A portion of the library, and most or all hits are left out here.

The opening 6 records (preview)
SMILES | KAT2A inh | FEN1 inh
CCn1c(=O)cc(OCC(=O)NCc2ccccc2OC)c2ccccc21 | 3.4% | -2.5%
O=C(CN(c1ccc(F)cc1)S(=O)(=O)c1ccc2c(c1)OCCO2)NCc1ccccn1 | 0.0% | 1.7%
CC(=O)Nc1ccc(NC(=O)CN(C)S(=O)(=O)c2ccc3nc(C)sc3c2)cc1 | 0.5% | -3.9%
NC(=O)C1CCN(C(=O)CC(c2ccccc2)c2ccccc2)CC1 | 31.6µM* | -2.0%
O=C(CCC(=O)c1ccc(Cl)cc1)OCC(=O)c1ccccc1 | -8.9% | 7.4%
CC12CCC(C(=O)Nc3nc4ccccc4s3)(OC1=O)C2(C)C (configuration not stated) | -10.6% | 18.4%

The whole of this part, repeating the preview:
SMILES | KAT2A inh | FEN1 inh
CCn1c(=O)cc(OCC(=O)NCc2ccccc2OC)c2ccccc21 | 3.4% | -2.5%
O=C(CN(c1ccc(F)cc1)S(=O)(=O)c1ccc2c(c1)OCCO2)NCc1ccccn1 | 0.0% | 1.7%
CC(=O)Nc1ccc(NC(=O)CN(C)S(=O)(=O)c2ccc3nc(C)sc3c2)cc1 | 0.5% | -3.9%
NC(=O)C1CCN(C(=O)CC(c2ccccc2)c2ccccc2)CC1 | 31.6µM* | -2.0%
O=C(CCC(=O)c1ccc(Cl)cc1)OCC(=O)c1ccccc1 | -8.9% | 7.4%
CC12CCC(C(=O)Nc3nc4ccccc4s3)(OC1=O)C2(C)C (configuration not stated) | -10.6% | 18.4%
COc1ccc(OC)c(CCNc2ncnc3onc(-c4ccc(Cl)cc4)c23)c1 | 17.7% | -20.4%
CCCSc1ccc([C@H]2N[C@@](CC(C)C)(C(=O)OC)[C@H]3C(=O)N(CC)C(=O)[C@@H]23)cc1 | -0.8% | -2.8%
CCCS(=O)(=O)N1CCCC(C(=O)NCc2cccnc2)C1 (configuration not stated) | -0.1% | 6.0%
COc1ccc(/C=C/C(=O)OCC(=O)NC2CCCCCC2)cc1OC | -2.6% | -10.1%
CCc1ccc(C(=O)NCc2ccc(Cl)cc2)cc1 | 37.8%[activator] | 7.9%
N/C(=N\OC(=O)c1ccc(OCC(F)(F)F)nc1)c1ccc(Cl)cc1 | 6.0% | -0.5%

Two of these compounds in a different format.
Each structure is followed by: KAT2A inh, FEN1 inh
> CCCSc1ccc([C@H]2N[C@@](CC(C)C)(C(=O)OC)[C@H]3C(=O)N(CC)C(=O)[C@@H]23)cc1
 : -0.8%, -2.8%
> O=C(CN(c1ccc(F)cc1)S(=O)(=O)c1ccc2c(c1)OCCO2)NCc1ccccn1
 : 0.0%, 1.7%

More results.
SMILES | KAT2A inh | FEN1 inh
COc1ccccc1C(=O)Nc1cccnc1 | -5.2% | -2.8%
Cc1ccc(C(=O)Nc2cc(C)c(OCC(=O)N3CCOCC3)c(C)c2)cc1 | -3.4% | 2.0%
O=C(Nc1ccc(C(F)(F)F)cc1)c1cc(-c2cccnc2)nc2ccc(Br)cc12 | -3.3% | -6.1%
CCC(=O)N1CCc2cc(Br)cc(S(=O)(=O)CCC(=O)NCc3ccc(F)cc3)c21 | -1.7% | 5.7%
CCCCNC(=O)CCCn1c(=O)c2ccccc2n(Cc2ccc(Cl)cc2)c1=O | 4.0% | -10.0%
O=C(C1=NN(c2ccccc2)C2C(=O)N(c3ccc(Cl)cc3)C(=O)C12)c1ccccc1 (configuration not stated) | -6.0% | 5.6%
COc1cc(/C=N/NC(=O)Nc2ccccc2)ccc1OCCOc1ccccc1C | -14.5% | -1.8%
O=C(O)c1sccc1Oc1ccc(F)cc1[N+](=O)[O-] | -3.2% | -2.0%
Cc1ccc(NC(=O)CN(C)C(=O)Nc2ccc(C)cc2)cc1 | -4.4% | 5.4%
COC(=O)c1sc2cc(=O)n(-c3cccc(C(F)(F)F)c3)nc2c1O | -8.3% | 6.8%
COc1cc2nc(NCc3ccccc3)n3nc(-c4ccccc4)nc3c2cc1OC | 1.7% | -2.4%
CCOc1ccc(C(=O)NCc2ccncc2)cc1 | -0.4% | 8.5%
CCCCOCCOCCOCc1cc2c(cc1CCC)OCO2 | -7.0% | .
COc1ccc(NS(=O)(=O)c2cc(NC(=O)CCNC(C)=O)ccc2N2CCCCC2)cc1 | -4.3% | -4.8%
Cc1ccc(-c2onc(C)c2C)cc1S(=O)(=O)NCc1cccs1 | 1.6% | -3.1%
CCOC(=O)c1ccccc1Nc1cc(C)nc2nc(C)nn12 | -3.8% | -4.4%
Cc1cc(=O)oc2cc(NC(=O)COc3ccccc3[N+](=O)[O-])ccc12 | -10.9% | 13.0%
CC(=O)c1ccccc1NS(=O)(=O)c1cccc2nonc12 | -4.2% | -9.7%
COCCN(C(=O)Cc1cccs1)C(C(=O)NC1CCCC1)c1ccc(OC)c(OC)c1 (configuration not stated) | 5.1% | 0.8%
CCC1=Nc2cc(C(=O)O)ccc2Sc2ccc(Cl)cc21 | -0.3% | -0.2%
N#Cc1cc([N+](=O)[O-])c(-n2nnc3ccccc32)c([N+](=O)[O-])c1 | -7.4% | -2.5%
O=C(Nc1ncn[nH]1)c1ccc(S(=O)(=O)N2CCOCC2)cc1 | -11.6% | 6.2%
CC1CCCCC1NC(=O)CSC1=Nc2ccccc2C2CC=NN12 (configuration not stated) | -13.3% | 3.7%
CCc1nnc(NC(=O)C(NC(=O)c2ccccc2Cl)C(C)C)s1 (configuration not stated) | -3.9% | 2.6%
Cc1nc2nc[nH]n2c(=O)c1NS(=O)(=O)c1ccc(C(C)(C)C)cc1 | -2.7% | -9.2%
Cc1ccc(S(=O)(=O)N/N=C\c2cc([N+](=O)[O-])ccc2Cl)cc1 | -5.9% | 1.7%
CCN(C[C@H]1N[C@@](CC)(C(=O)OC)[C@H]2C(=O)N(Cc3ccccc3)C(=O)[C@@H]12)C(=O)c1ccc(C(C)(C)C)cc1 | -9.9% | -3.9%
O=C1N=C(O)CN1/N=C/c1ccc(-c2ccc([N+](=O)[O-])cc2)o1 | -10.6% | -4.0%
CSc1cc(-c2ccccc2)n(Cc2ccccc2Cl)c(=O)c1C#N | -1.8% | -11.9%
COc1ccc(CC2(CO)CCN(Cc3cccnc3)CC2)cc1 | -1.5% | -0.6%
CCOc1cc(S(=O)(=O)NCCc2c(C)[nH]c3ccc(C)cc23)ccc1Br | -10.2% | 0.2%
COC(=O)c1ccccc1S(=O)(=O)NNC(=O)C12CC3CC(CC(C3)C1)C2 | -1.2% | 0.5%
CCN(CC)CCNC(=O)Cn1nc(Cc2cccnc2)c2ccccc2c1=O | -5.4% | -1.1%
COc1ccc(CN(Cc2ccc(OC)cc2)S(=O)(=O)c2ccc(-n3cnnn3)c(C)c2)cc1 | -10.7% | -6.7%
CC(C)(C)c1[nH]nc2c1C(c1ccco1)C(C#N)=C(N)O2 (configuration not stated) | -4.5% | 1.5%
Cc1ccc(/C=C/C(=O)O)cc1S(=O)(=O)N(C)CCO | 0.1% | 5.6%

Single values from the entries so far:
Value of Cc1ccc(-c2onc(C)c2C)cc1S(=O)(=O)NCc1cccs1 under FEN1 inh: -3.1%
Value of CC1CCCCC1NC(=O)CSC1=Nc2ccccc2C2CC=NN12 (configuration not stated) under KAT2A inh: -13.3%
Value of COc1ccc(/C=C/C(=O)OCC(=O)NC2CCCCCC2)cc1OC under FEN1 inh: -10.1%

New compounds follow
SMILES | KAT2A inh | FEN1 inh
Cc1ccc(NC(=O)CCn2c(=O)oc3ccccc32)cc1 | 0.5% | 31.3%
CCc1cc(C(=O)COc2ccccc2F)c(O)cc1O | -6.3% | -1.5%
COc1ccc(-c2noc(Cc3cccs3)n2)cc1 | -3.9% | 11.1%
CCOC(=O)c1cc(C#N)c(SCC(=O)OC)[nH]c1=O | -5.5% | -10.6%
CC(C)OCCCn1c(=S)[nH]c2ccc(N3CCOCC3)cc2c1=O | ? | -2.8%
COc1ccccc1C(=O)Nc1ccc2c3c(cccc13)CC2 | -0.7% | -15.5%
Cn1c(=O)c2c(nc(Oc3ccc4c(c3)OCO4)n2Cc2ccc(Cl)cc2)n(C)c1=O | -2.0% | 2.9%
O=C(NCc1ccccc1Cl)c1cccn1-c1nnc(N2CCCCC2)s1 | -7.9% | -11.1%
CCC(C)NC(=O)CC1Oc2ccc(C)cc2NC1=O (configuration not stated) | 1.0% | -4.3%
Nc1cc(=O)[nH]c(SCC(=O)Nc2cccnc2Cl)n1 | -2.9% | 11.1%
CCOC(=O)c1[nH]c2ccccc2c1NC(=O)CN1CCCCC1 | -6.7% | -3.0%
COc1cc(NC(=O)CN(C)Cc2ccc(OC(F)F)cc2)c(C)cc1[N+](=O)[O-] | -8.0% | -15.7%
O=C(Nc1nc2ccccc2s1)c1ccc2c(c1)OCO2 | -0.4% | -0.1%
CCc1ccccc1Nc1nc2ccccc2n1C | -3.1% | -6.5%
COC(=O)c1ccc(NC(=O)CC2C(=O)N(c3ccccc3)C(=O)N2Cc2ccc(F)cc2)cc1 (configuration not stated) | -1.5% | -16.6%
CCN(CC)c1ccc(C(=O)NNC(=O)CN2C(=O)NC(C)(c3ccccc3)C2=O)cc1 (configuration not stated) | -5.5% | -0.7%
Cc1cc2ccccn2c1C(=O)c1ccc([N+](=O)[O-])cc1[N+](=O)[O-] | -2.0% | -0.8%
CC1=C(c2ccc(C)c(C)c2)S(=O)(=O)N=C1N1CCC(C(=O)NC(C)Cc2ccco2)CC1 (configuration not stated) | -5.9% | -2.5%
Cc1nc(SCC(=O)NCCc2ccccc2)n[nH]1 | -0.2% | 1.8%
Cc1nn(-c2ncc(C(F)(F)F)cc2Cl)c(=O)n1-c1ccccc1 | -0.2% | -3.9%
O=C(NCCN1CCOCC1)c1ccc(CS(=O)(=O)c2c(Cl)cccc2Cl)o1 | -9.6% | 18.5%
CC(Oc1ccc2ccc(=O)oc2c1)C(=O)NCCCn1ccnc1 (configuration not stated) | -9.8% | -3.5%
CN(c1ccc(F)cc1)S(=O)(=O)N1CCCC(C(=O)NCc2ccccc2Cl)C1 (configuration not stated) | -5.3% | 6.4%
O=C1[C@@H](c2ccccc2)[C@@H](c2ccccc2)N1c1cccnc1 | 1.6% | -2.8%
Cc1c2cnn(-c3ccccc3)c(=O)c2c(C)n1CC(=O)Nc1ccccc1Br | 1.8% | 0.6%
CC(C)C1=CC(=NS(=O)(=O)c2cccc([N+](=O)[O-])c2)C=C(C(C)C)C1=O | -4.0% | -2.0%
COc1ccc(N2C(=NC(=O)C3CCCCC3)SC3CS(=O)(=O)CC32)c(OC)c1 (configuration not stated) | -21.4% | -5.0%
Cc1cccc(NC(=O)NC(=O)c2ccccc2)n1 | -24.3% | 3.7%
Cc1onc(-c2ccccc2Cl)c1C(=O)OCC(=O)Nc1ccc2c(c1)OCO2 | -9.8% | -13.9%
COc1ccc(CCC(=O)N2CCCc3ccccc32)cc1 | -2.4% | 0.3%
N#Cc1cc([N+](=O)[O-])cnc1N(CCO)CCO | -8.2% | -3.4%
Cc1ccsc1C(=O)NN=C1CCCCCC1 | -4.4% | 17.0%
COc1ccc(C(CNC(=O)c2nn(-c3ccccc3)c(=O)c3ccccc23)N2CCOCC2)cc1 (configuration not stated) | 0.8% | -2.2%
COc1ccc(NC(=O)C2CC(=O)N(Cc3ccco3)C2)cc1Cl (configuration not stated) | -5.3% | 18.5%
Cn1c(/C(C#N)=C/Nc2ccccn2)nc2ccccc21 | -6.0% | -1.3%
CC(C)(C)[C@H]1C=C(C(=O)N2CCN(Cc3ccccc3)CC2)O[C@@H](OCCCCO)C1 | -2.0% | 17.4%
O=C(CSc1ccc(-c2ccccc2)nn1)NC1CCCCC1 | -19.1% | -1.9%
Cc1ccc(S(=O)(=O)NCCc2cn3ccsc3n2)cc1 | -14.2% | 0.8%
Cc1cccc(C)c1NC(=O)CCCn1c(=O)c2cccn2c2ccccc21 | -7.2% | 6.9%
CC1CCN(C(=O)c2ccc3c(c2)OCCO3)CC1 | -2.6% | -5.4%
Cc1ccc2oc(-c3cccc(NC(=O)c4sc5c([N+](=O)[O-])cccc5c4Cl)c3)nc2c1 | 0.6% | -4.4%
Cc1nc2ncnn2c(C)c1CCC(=O)NCCC1=CCCCC1 | 17.9% | 0.7%
O=c1c2cc(-c3ccccc3)sc2ncn1-n1cccc1 | -9.3% | 5.1%
COc1cc(/C=C\C(=O)O)cc(S(=O)(=O)N2CCCCCC2)c1OC | -18.7% | -1.7%
Cc1cc(OCc2nnc(SC(C)C(=O)O)n2Cc2ccccc2)ccc1Cl (configuration not stated) | 0.2% | -4.4%
CCN(CC)C(=O)c1cnn(-c2ccccc2)c1NC(=O)c1ccco1 | -5.0%[0.501 µM] | 7.7%
CCN(C(=O)c1ccco1)c1nnc(-c2ccc(OC)cc2)s1 | 1.2% | 2.4%
NC(=O)C1CCN(c2oc(-c3cccs3)nc2S(=O)(=O)c2ccc(Br)cc2)CC1 | -2.7% | 4.5%
CC1CN(C(=O)N2CCC(C(=O)NCCC3=CCCCC3)CC2)c2cc(Cl)ccc2O1 (configuration not stated) | -2.1% | 14.8%
Cc1cccc(NC(=O)N2CCC3(CC2)Oc2ccccc2C(=O)N3Cc2ccccc2F)c1C | 0.8% | -1.2%
CC1CCCN(C(=S)NC2CCCC2)C1 (configuration not stated) | -9.5% | 2.4%
Cc1ccc(C)c(N2CCN(C(=O)CCCn3c(=S)[nH]c4cc5c(cc4c3=O)OCO5)CC2)c1 | ? | -2.7%
CCOc1cc(Cl)c(S(=O)(=O)n2cc(C)nc2CC)cc1Cl | -7.5% | -19.3%
CC(C(=O)N1CCc2ccccc21)N(C)CC(=O)Nc1cccc(F)c1 (configuration not stated) | 0.1% | -0.8%
CSc1ccccc1NC(=S)NC1CCCCC1 | -1.0% | 3.8%

Screening data from PubChem BioAssay.
